Screens deposited in PubChem by several laboratories.
INS promoter inh = TRM-6 insulin promoter activity inhibition. AID 1273. inhibition, % at 2 µM. 0.9% of 130,000 active. TRM-6 cells (human fetal islet line), insulin promoter-eGFP reporter, imaging; reporter expression induced with tamoxifen;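 active = inhibition above the mean plus 3 SD, with well images judged a real hit on visual review, cut at about 60% in these data, passing the limit was not always enough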
PKD1 kinase inh = blocks activity of human protein kinase D1 | PKD1 kinase fluorescence polarization assay | inhibition, %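 (about 10 µM by stock and volumes)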 | 0.056% of 200,000 active;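 active = inhibition of 50% or more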;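 also: controls were vehicle for no effect and a reference inhibitor for full effect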
GALR2 agonist = agonists of human galanin receptor 2 (GALR2) | 0.48% of 140,000 active | GALR2-expressing cells, agonist activation read-out | activation, %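 (tested at 5 µM)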 | O43603 | AID 803;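 active = above mean plus 3 SD of all compounds, about 5% in these data, not always enough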;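 also: 0% = vehicle buffer wells and 100% = reference agonist at full effect; tested in CHO reporter cells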
Target sequence (O43603 whole entry, looked up): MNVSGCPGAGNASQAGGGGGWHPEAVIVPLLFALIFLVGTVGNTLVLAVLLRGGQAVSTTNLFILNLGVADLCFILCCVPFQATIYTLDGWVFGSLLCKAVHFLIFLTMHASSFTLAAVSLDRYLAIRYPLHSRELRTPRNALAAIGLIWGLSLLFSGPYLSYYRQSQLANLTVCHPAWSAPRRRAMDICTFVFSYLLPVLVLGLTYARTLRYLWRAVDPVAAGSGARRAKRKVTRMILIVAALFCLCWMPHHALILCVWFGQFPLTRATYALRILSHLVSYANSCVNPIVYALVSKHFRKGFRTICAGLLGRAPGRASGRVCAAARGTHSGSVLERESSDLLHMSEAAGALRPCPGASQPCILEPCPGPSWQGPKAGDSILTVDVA
HSV replic up = HSV replication enhancement | HSV replication augmentation in cells, fold increase | maximum fold increase | 0.005% of 220,000 active | AID 1956;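 active = peak rise of 1.5-fold or more in the series; tested in PC3 cells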;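 also: first round at 10 µM; read as green reporter fluorescence; hits show the peak of a series up to 25 µM; 1 = signal of infected wells without compound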
RGS16-Gao = modulates binding between human RGS16 and Galphao | O15492+P09471 | bead-based flow cytometry RGS16-Galphao binding, fluorescence; actives lie on both sides | binding response (% of control), % at 10 µM | 0.38% of 220,000 active;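 active = below 25% or above 175%, edge rows of some plates excepted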;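 also: Galphao activated by GDP with aluminum fluoride before binding; 100% = wells without compound and 0% = beads without RGS; some results beyond the cut were filed as inactive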
Target sequence (O15492 whole entry, looked up): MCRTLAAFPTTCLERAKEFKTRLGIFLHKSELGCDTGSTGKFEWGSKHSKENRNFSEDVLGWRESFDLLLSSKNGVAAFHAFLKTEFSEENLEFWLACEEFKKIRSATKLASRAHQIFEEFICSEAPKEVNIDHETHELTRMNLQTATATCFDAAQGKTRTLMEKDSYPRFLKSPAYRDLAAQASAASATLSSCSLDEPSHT
Target sequence (P09471 whole entry, looked up): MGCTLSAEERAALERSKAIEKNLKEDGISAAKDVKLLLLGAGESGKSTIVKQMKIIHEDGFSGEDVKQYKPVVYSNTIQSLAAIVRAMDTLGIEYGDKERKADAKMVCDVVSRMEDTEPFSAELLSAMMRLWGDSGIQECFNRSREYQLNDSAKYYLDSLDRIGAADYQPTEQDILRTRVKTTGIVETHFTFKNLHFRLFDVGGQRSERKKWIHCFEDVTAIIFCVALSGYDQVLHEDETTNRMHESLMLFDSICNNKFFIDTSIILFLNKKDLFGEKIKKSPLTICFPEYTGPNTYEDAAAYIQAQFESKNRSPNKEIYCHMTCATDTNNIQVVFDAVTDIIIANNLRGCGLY
INS promoter inh cell count = further read-out of INS promoter inh, marked with its call; normalized cell count, %; measured here: cell count, toxicity; reference of the scale not given here;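 cells exposed to compound for 48 h; stained nuclei by imaging scaled within each plate; lower means fewer cells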
HSV replic up primary fold = second read-out of HSV replic up, no call of its own (marks repeat the call); fold increase; compound at 10 µM; measured here: primary screen fold increase 10 uM; tested in PC3 cells;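 GFP signal in the first replicate; 1 = infected wells without compound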
Starred values were filed as active, the others as inactive; i = inactive; nt = not tested or not shown.

SMILES	INS promoter inh	INS promoter inh cell count	PKD1 kinase inh	GALR2 agonist	HSV replic up	HSV replic up primary fold	RGS16-Gao
Cc1cc(NC(=O)c2cc(-c3ccc4c(c3)OCO4)on2)n(-c2ccccc2)n1	10.0	66.0	-12.7	-0.3	i	0.97	100.8
Cc1cc(C(F)(F)F)nc(-n2cc(-c3cccc(N)c3)nn2)n1	nt	nt	-4.4	nt	i	0.92	93.2
CCCN(CCC)S(=O)(=O)c1ccc(C(=O)N2CCOCC2)cc1	nt	nt	0.7	-0.9	i	1.13	112.1
COc1ccc(CN2CCC(C(=O)N3CCCC(C)C3)CC2)cc1OC (centres undefined)	-5.3	132.7	-6.9	nt	i	0.96	100.9
CCc1ccc(/C(C)=N\Nc2ccc([N+](=O)[O-])cc2)cc1	-63.3	122.0	-9.6	0.2	i	1.16	103.3
Cc1nn(CC(=O)O)c(=O)c2ccccc12	9.4	182.9	-2.6	-4.5	i	1.03	107.1
Cc1ccsc1-c1nc(C(N)=O)c2[nH]c(=O)n(-c3ccc(Cl)cc3)c2n1	-135.0	68.8	-5.1	-1.6	nt	nt	113.5
CCOC(=O)c1ccc(NC(=O)C2CCN(C(=O)c3ccc(OC)c(OC)c3)CC2)cc1	62.5	138.3	0.7	-0.2	i	0.86	99.4
NC(=O)CSc1nnc(Cn2c(=O)sc3ccccc32)n1-c1ccccc1	nt	nt	-0.3	-0.3	i	0.83	103.0
COc1ccc(-c2cc(C#N)nc(N3CCN(C)CC3)n2)cc1	50.0	98.2	-9.8	-1.6	i	0.72	96.5
Cc1ccc(C2CC(=O)NC(SCC(=O)Nc3nccs3)=C2C#N)cc1 (centres undefined)	0.0	166.0	1.5	0.6	i	0.94	94.6
O=C(O)c1cccc(Nc2c([N+](=O)[O-])c(=O)oc3ccccc23)c1	nt	nt	nt	nt	i	1.16	96.4
CC(C)CCNC(=O)CN(CCN1CCOCC1)C(=O)Cn1nnc(-c2ccc(F)cc2)n1	12.1	80.2	-0.5	-1.3	i	0.93	98.8
COc1ccc(Nc2nc(N)nc(CSCCO)n2)cc1	-35.7	163.8	-1.2	-1.4	i	0.87	91.5
CCC(=O)NC(=S)Nc1ccc(S(=O)(=O)N2CCN(C)CC2)cc1	23.3	120.2	-3.2	0.9	i	0.98	80.8
COc1ccccc1N1CCN(C(=O)CSc2nnc(NC(=O)C3CCC3)s2)CC1	-71.4	84.0	0.1	0.1	i	0.9	101.4
O=C(Nc1sc2c(c1C(=O)O)CCCCC2)c1ccccc1F	nt	nt	4.7	nt	i	0.9	102.1
Cc1ccc(C(c2sc3nc(C)nn3c2O)N2CCOCC2)cc1 (centres undefined)	nt	nt	-6.9	-0.4	i	0.86	90.8
Cc1ccc2[nH]c(=O)c(C(c3nnnn3CC3CCCO3)N3CCc4ccccc4C3)cc2c1 (centres undefined)	nt	nt	-3.0	-3.5	i	0.78	104.2
O=C(COC(=O)c1ccccc1C(=O)c1ccc(Cl)c([N+](=O)[O-])c1)NC1CC1	-20.0	44.2	-4.5	nt	i	0.57	99.9
Cc1c(Cl)c([N+](=O)[O-])nn1CC(=O)Nc1c(C)n(C)n(-c2ccccc2)c1=O	-48.6	68.5	-4.7	-3.4	i	0.92	105.7
Cc1cc(OC(=O)CNC(=O)OC(C)(C)C)c2c(C)cc(=O)oc2c1	nt	nt	15.0	-1.2	i	0.92	85.2
O=c1[nH]c(-c2ccccc2)nnc1-c1ccccc1	nt	nt	nt	nt	i	1.07	97.5
CCCc1n(CC(O)COCc2ccccc2)c2ccccc2[n+]1C (centres undefined)	nt	nt	-5.5	nt	i	1	99.9
COc1ccc(NC(=O)c2ccc(S(=O)(=O)N(C)C)cc2)cc1OC	37.5	83.5	-8.8	-0.8	i	1.01	50.0
CCCNC(=O)COC(=O)c1ccc(Cl)c(S(=O)(=O)N2CCCC2)c1	26.1	80.9	-6.2	0.7	i	0.93	101.7
COc1ccc2c(CC(=O)OCC(=O)Nc3sc4c(c3C#N)CCC(C)C4)coc2c1 (centres undefined)	-38.7	124.6	1.5	-1.1	i	0.95	101.9
Cc1cc(C(=O)OCC(=O)c2ccc3c(c2)OCCO3)c(C)o1	-47.2	151.0	-3.8	-1.7	i	1.02	84.9
Cc1ccc(S(=O)(=O)NCCC(=O)Nc2nnc(C3CC3)s2)cc1C	nt	nt	2.6	0.4	i	1.04	96.7
CC(OC(=O)/C=C/c1ccco1)C(=O)Nc1cccc([N+](=O)[O-])c1 (centres undefined)	nt	nt	-8.7	-1.5	i	1.11	106.9
Cc1ccccc1NC(=S)NCCO	nt	nt	-0.9	nt	i	0.99	98.7
NC(=O)CC(NC(=O)Cc1cccc2ccccc12)c1ccc(N2CCc3ccccc3C2)c([N+](=O)[O-])c1 (centres undefined)	nt	nt	nt	nt	i	0.735	97.8
COc1ccccc1CN1C(=O)C2CC=CCC2C1=O (centres undefined)	-80.0	103.5	-5.9	-2.3	i	0.8	102.5
O=C(Nc1csnn1)c1csnn1	nt	nt	nt	nt	i	0.89	102.8
CC(C1CC1)N(Cc1ccccc1)C(=S)Nc1ccccc1 (centres undefined)	-31.2	90.7	-9.2	nt	i	0.98	99.7
NC(=O)CC(NC(=O)Cc1cccc2ccccc12)c1ccc(NCc2ccc(F)c(F)c2)c([N+](=O)[O-])c1 (centres undefined)	nt	nt	nt	nt	i	0.795	103.2
Cc1nn(CC(=O)NCCc2ccccc2)c(C)c1[N+](=O)[O-]	14.3	191.1	4.8	-1.5	i	1.04	106.6
COCCn1c(-c2ccc(OC(F)(F)C(F)C(F)(F)F)cc2)nc2c1c(=O)[nH]c(=O)n2CC(C)C (centres undefined)	-12.5	119.6	0.6	-0.1	i	0.85	91.5
O=C(Nc1ccc(F)cc1)Nc1ccccc1NS(=O)(=O)c1cccs1	nt	nt	-11.8	0.2	i	1	103.6
COc1ccccc1NCc1nnc(SCC(=O)N/N=C/c2ccco2)n1-c1ccc(Cl)cc1Cl	-58.0	69.5	-1.7	-0.6	i	0.887	100.6
O=C(N/N=C1/CCS(=O)(=O)c2ccc(F)cc21)c1cccnc1	nt	nt	4.8	nt	i	1.01	97.5
O=C(C(=O)N1CCN(c2ccc(F)cc2)CC1)N1CCCCC1	nt	nt	-7.1	nt	i	1.07	96.9
Cc1cc2ncn(/N=C/c3ccc([N+](=O)[O-])o3)c2cc1C	-29.6	48.3	-13.8	-1.6	i	0.79	109.1
O=C(O)CC1S/C(=N/N=C/c2ccccn2)NC1=O (centres undefined)	nt	nt	nt	nt	i	1.24	98.1
CC(=O)OCC1=C(C(=O)O)N2C(=O)C(NC(=O)C(C)Cn3cc(Cl)cn3)C2SC1 (centres undefined)	35.7	137.0	-1.8	nt	i	0.92	96.5
C=C(C)CN1CCN(c2c(CCC#N)c(C)c(C#N)c3nc4ccccc4n23)CC1	-154.6	110.5	-9.7	12.4*	i	0.97	96.3
NS(=O)(=O)c1ccc(CCNC(=O)c2ccc(C#CC3(O)CCCCC3)cc2)cc1	-75.0	155.0	-7.3	nt	i	0.74	104.7
O=C(CC1Sc2ccccc2NC1=O)NCc1cccc(Cl)c1 (centres undefined)	-115.4	87.6	0.9	nt	i	0.95	95.9

3 entries from above, arranged by count of non-hydrogen atoms, low to high:
SMILES	INS promoter inh	INS promoter inh cell count	PKD1 kinase inh	GALR2 agonist	HSV replic up	HSV replic up primary fold	RGS16-Gao
O=C(Nc1ccc(F)cc1)Nc1ccccc1NS(=O)(=O)c1cccs1	nt	nt	-11.8	0.2	i	1	103.6
C=C(C)CN1CCN(c2c(CCC#N)c(C)c(C#N)c3nc4ccccc4n23)CC1	-154.6	110.5	-9.7	12.4*	i	0.97	96.3
COc1ccccc1NCc1nnc(SCC(=O)N/N=C/c2ccco2)n1-c1ccc(Cl)cc1Cl	-58.0	69.5	-1.7	-0.6	i	0.887	100.6

(cont.)
SMILES	INS promoter inh	INS promoter inh cell count	PKD1 kinase inh	GALR2 agonist	HSV replic up	HSV replic up primary fold	RGS16-Gao
CN(C)c1ccc(N2C(=O)CC(Nc3ccc(N4CCOCC4)cc3)C2=O)cc1 (centres undefined)	41.4	144.7	2.5	-1.6	i	0.97	102.2
COc1cc2[nH]c3c(Cl)ncnc3c2cc1OC	38.7	117.9	-0.9	-0.1	i	0.88	99.6
Cc1ccc(S(=O)(=O)N2CCOCC2)cc1NC(=O)CNC1CCCC1	nt	nt	nt	nt	i	1.06	101.0
CCOc1ccc(NC(=O)Cn2c(=O)n(CC3CCCO3)c(=O)c3ccccc32)cc1 (centres undefined)	nt	nt	3.8	nt	i	1	86.4
CC[N+](C)(C)CCN(Cc1ccc(Cl)cc1)c1ccccn1	-57.1	96.0	1.4	-0.8	i	1.14	103.4
Cc1cccc(NC(NC(=O)c2ccccn2)C(Cl)(Cl)Cl)c1 (centres undefined)	-263.6	76.2	-3.7	-1.9	i	0.99	98.9
Cc1ccc(S(=O)(=O)NC(=O)COc2ccccc2C)cc1	81.2*	150.3*	-3.6	-2.0	i	0.92	83.7
COc1ccc(/C=N/NC(=O)c2nc(-c3ccccc3)cc(-c3ccccc3)n2)cc1	nt	nt	4.9	-4.1	i	1.01	99.5
CCOC(=O)c1c(C(=O)OCC)c(C)n(Cc2cc(OC)c(OC)c(OC)c2)c1C	-214.3	120.1	-2.0	-0.1	i	0.79	101.1
CC(=O)Nc1ccc(NC(=S)NC(=O)/C=C/c2ccccc2)cc1	nt	nt	-7.9	nt	i	0.89	103.3
Cc1ccc(SC[C@H](Cc2ccccc2)N2CCN(C)CCC2=O)cc1	nt	nt	nt	nt	i	0.89	94.5
Cc1cc(C)nc(SCc2csc(-c3ccccc3)n2)n1	-96.4	101.7	-16.7	0.1	i	0.98	105.0
COC(=O)c1cccc(NC(=O)CSc2nc(O)c(-c3ccccc3)c(=O)[nH]2)c1	nt	nt	0.1	nt	i	0.96	101.0
COc1ccc(OC(C)c2ccc(C#N)c(=O)[nH]2)cc1 (centres undefined)	nt	nt	4.8	nt	i	0.91	101.1
COc1ccc(OC)c(NC(=O)COC(=O)Cc2ccc(Br)cc2)c1	35.7	55.6	-3.9	nt	i	1.07	101.4
COC(=O)c1ccccc1NC(=O)Cn1c(=O)n(CCC(=O)NC2CCN(Cc3ccccc3)CC2)c(=O)c2ccccc21	nt	nt	nt	nt	i	0.95	98.8
O=C(Cn1ncc(Cl)c(Cl)c1=O)NC1CCS(=O)(=O)C1 (centres undefined)	nt	nt	nt	nt	i	0.89	93.7
COc1cc(Br)cc(-c2nc3c(c(=O)[nH]c(=O)n3Cc3ccccc3)n2C)c1O	6.5	142.2	-5.4	-0.8	i	0.9	105.6
CC(C)Cc1csc(NC(=O)c2ccc(Br)cc2)c1C(=O)O	nt	nt	nt	nt	i	0.94	98.5

Compounds above with an aryl methoxy group (15):
SMILES	INS promoter inh	INS promoter inh cell count	PKD1 kinase inh	GALR2 agonist	HSV replic up	HSV replic up primary fold	RGS16-Gao
COc1ccc(CN2CCC(C(=O)N3CCCC(C)C3)CC2)cc1OC (centres undefined)	-5.3	132.7	-6.9	nt	i	0.96	100.9
CCOC(=O)c1ccc(NC(=O)C2CCN(C(=O)c3ccc(OC)c(OC)c3)CC2)cc1	62.5	138.3	0.7	-0.2	i	0.86	99.4
COc1ccc(-c2cc(C#N)nc(N3CCN(C)CC3)n2)cc1	50.0	98.2	-9.8	-1.6	i	0.72	96.5
COc1ccc(Nc2nc(N)nc(CSCCO)n2)cc1	-35.7	163.8	-1.2	-1.4	i	0.87	91.5
COc1ccccc1N1CCN(C(=O)CSc2nnc(NC(=O)C3CCC3)s2)CC1	-71.4	84.0	0.1	0.1	i	0.9	101.4
COc1ccc(NC(=O)c2ccc(S(=O)(=O)N(C)C)cc2)cc1OC	37.5	83.5	-8.8	-0.8	i	1.01	50.0
COc1ccc2c(CC(=O)OCC(=O)Nc3sc4c(c3C#N)CCC(C)C4)coc2c1 (centres undefined)	-38.7	124.6	1.5	-1.1	i	0.95	101.9
COc1ccccc1CN1C(=O)C2CC=CCC2C1=O (centres undefined)	-80.0	103.5	-5.9	-2.3	i	0.8	102.5
COc1ccccc1NCc1nnc(SCC(=O)N/N=C/c2ccco2)n1-c1ccc(Cl)cc1Cl	-58.0	69.5	-1.7	-0.6	i	0.887	100.6
COc1cc2[nH]c3c(Cl)ncnc3c2cc1OC	38.7	117.9	-0.9	-0.1	i	0.88	99.6
COc1ccc(/C=N/NC(=O)c2nc(-c3ccccc3)cc(-c3ccccc3)n2)cc1	nt	nt	4.9	-4.1	i	1.01	99.5
CCOC(=O)c1c(C(=O)OCC)c(C)n(Cc2cc(OC)c(OC)c(OC)c2)c1C	-214.3	120.1	-2.0	-0.1	i	0.79	101.1
COc1ccc(OC(C)c2ccc(C#N)c(=O)[nH]2)cc1 (centres undefined)	nt	nt	4.8	nt	i	0.91	101.1
COc1ccc(OC)c(NC(=O)COC(=O)Cc2ccc(Br)cc2)c1	35.7	55.6	-3.9	nt	i	1.07	101.4
COc1cc(Br)cc(-c2nc3c(c(=O)[nH]c(=O)n3Cc3ccccc3)n2C)c1O	6.5	142.2	-5.4	-0.8	i	0.9	105.6
